Bioassay records as filed in PubChem.
AF4-AF9 inh: inhibitors of AF4 peptide binding to AF9, primary screen, biochemical, AlphaScreen, biotin-AF4 peptide, FLAG-AF9, single point. Protein AF-9 (Homo sapiens), P42568. inhibition, % at 10 µM. 350,000 compounds, 0.47% hits;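 active = every replicate reaching a set inhibition limit, whatever the replicate mean, cut at about 25% in these data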;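 also: 0% = plate neutral control median and 100% = total signal loss; the record names both 10 and 1 µM as test concentration; the first replicate is given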
Target sequence (P42568 whole entry, looked up): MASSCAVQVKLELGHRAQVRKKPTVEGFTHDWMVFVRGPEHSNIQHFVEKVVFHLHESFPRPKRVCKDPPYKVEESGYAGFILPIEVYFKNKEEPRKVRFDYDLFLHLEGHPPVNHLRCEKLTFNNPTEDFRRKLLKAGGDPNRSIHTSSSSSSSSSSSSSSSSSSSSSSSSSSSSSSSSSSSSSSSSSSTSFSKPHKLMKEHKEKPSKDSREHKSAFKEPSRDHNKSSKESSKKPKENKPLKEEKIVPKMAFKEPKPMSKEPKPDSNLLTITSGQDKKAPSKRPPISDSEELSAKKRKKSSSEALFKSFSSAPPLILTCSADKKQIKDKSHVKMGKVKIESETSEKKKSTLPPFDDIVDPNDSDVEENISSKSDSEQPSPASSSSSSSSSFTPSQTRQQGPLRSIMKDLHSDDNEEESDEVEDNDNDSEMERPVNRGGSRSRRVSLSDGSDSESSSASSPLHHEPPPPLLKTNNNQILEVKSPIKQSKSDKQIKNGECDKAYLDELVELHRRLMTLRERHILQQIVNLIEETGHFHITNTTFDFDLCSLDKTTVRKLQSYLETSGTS
FGF22 binding: binders of human FGF22 protein, primary screen, FGF22 synaptogenesis inhibitor project, biophysical, thermal shift, single point; Fibroblast growth factor 22 (Homo sapiens), Q9HCT0; recombinant FGF22 thermal shift, SYPRO orange fluorescence; percent of sucrose octasulfate shift, DMSO zero; calls only at 9.99 µM; 340,000 compounds, 1.5% hits;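 active = melting point raised past a set limit in the mean and every replicate; three in four hits are not shown here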
Target sequence (Q9HCT0 whole entry, looked up): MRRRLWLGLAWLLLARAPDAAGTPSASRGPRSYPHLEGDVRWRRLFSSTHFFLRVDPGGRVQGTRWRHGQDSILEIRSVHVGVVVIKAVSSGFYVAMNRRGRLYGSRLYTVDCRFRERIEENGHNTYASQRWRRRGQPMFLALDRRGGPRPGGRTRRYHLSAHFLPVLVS
rRNA inh HTS: reduced GFP signal of wild-type E. coli, primary screen, bacterial rRNA inhibitor project, GFP/RFP fluorescence, OD600, single point; E. coli WT GFP vs humanized-ribosome RFP mutants, 24 h; stronger effect = lower value; DMSO median 0, no signal -100; GFP signal change (wild-type ribosome), % (test concentration not listed); 350,000 compounds, 1.6% hits; AID 720706, 2013;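 active = significant combined selectivity score with lowered wild-type GFP, culture density cut under 30%, mutant RFP and density less affected; inactive = any of these conditions unmet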; also: one replicate is shown; some compounds called inactive have numbers as strong as hits
rRNA inh HTS OD600: further read-out of rRNA inh HTS, marked with its call; OD600 change, %; measured here: OD600 growth;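 optical density of the mix in the first replicate; 0 = DMSO median and -100 = no signal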
rRNA inh HTS RFP: second read-out of rRNA inh HTS, no call of its own (marks repeat the call); RFP signal change, %; measured here: RFP humanized mutant strains;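 first replicate; 0 = DMSO median and -100 = no signal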
* = called active by the depositor; i = inactive; . = no result given; & = joins results of further samples. Some of the compounds tested. The share of hits here may be higher or lower than overall.

SMILES	AF4-AF9 inh	FGF22 binding	rRNA inh HTS	rRNA inh HTS OD600	rRNA inh HTS RFP
COc1cccc(S(=O)(=O)N(C)C[C@@H]2Oc3ncc(C#Cc4ccc(OC)c(OC)c4)cc3C(=O)N([C@H](C)CO)C[C@@H]2C)c1	2.6	i	5	25	2.5
Cc1noc(C)c1NC(=O)Nc1ccc2c(c1)C(=O)N([C@H](C)CO)C[C@@H](C)[C@H](CN(C)S(=O)(=O)c1ccc(F)cc1)O2	-1.2	i	2	9	-0.1
Cc1noc(C)c1NC(=O)N(C)C[C@H]1Oc2ccc(NS(C)(=O)=O)cc2C(=O)N([C@@H](C)CO)C[C@@H]1C	-2.0	i	3	10	0.6
C[C@H]1CN([C@@H](C)CO)S(=O)(=O)c2ccc(/C=C/c3ccccc3)cc2O[C@@H]1CN(C)C(=O)Nc1cccc(F)c1	-0.2	i	-3	0	1.5
COc1cccc(NC(=O)N(C)C[C@@H]2Oc3cc(C#CC4(O)CCCC4)ccc3S(=O)(=O)N([C@@H](C)CO)C[C@@H]2C)c1	3.0	i	0	-11	1.7
C[C@H]1CN([C@@H](C)CO)C(=O)c2cc(-c3cccc(C(=O)N(C)C)c3)cnc2O[C@H]1CN(C)C(=O)Cc1ccccn1	-1.3&-2.2	i	3&1	-6&0	-1.5&3.0
Cc1ccc(S(=O)(=O)N(C)C[C@H]2Oc3c(NC(=O)c4ccncc4)cccc3C(=O)N([C@H](C)CO)C[C@@H]2C)cc1	-0.7	i	2	6	-1.3
COC(=O)C1=C(C)N(Cc2ccccc2C(F)(F)F)C(=NCc2ccc3c(c2)OCO3)NC1c1ccccc1C(F)(F)F (centres undefined)	-2.1	.	4	8	5.9
OC[C@@H]1[C@@H](c2ccc(-c3ccc(F)cc3)cc2)[C@H]2CN(CCC(F)(F)F)CCCCN12	10	i	-59	-75	-14
CO[C@@H]1CN(C)C(=O)c2ccc(NC(=O)C3CCC3)cc2OC[C@@H](C)N(CC2CCCCC2)C[C@H]1C	0.5	i	0	-10	8.1
CC(C)NC(=O)Nc1ccc2c(c1)C(=O)N([C@H](C)CO)C[C@H](C)[C@H](CN(C)C(=O)Nc1ccc(F)cc1)OCCCC[C@@H](C)O2	-1.2	i	11	14	0.1
CC=Cc1ccc2n(c1=O)C[C@H]1[C@H](CO)[C@@H](C(=O)NCc3ccc4c(c3)OCO4)[C@@H]2N1C(C)=O (mixture of isomers)	-1.7	i	0	-3	-0.3
CCOc1cccc(-c2ccc3nncn3c2)c1	-0.7	i	4	12	3.6
c1cc(-c2cc3nc(NC4CCCCC4)ccn3n2)ccc1OCCN1CCOCC1	6.4	i	-8	-33	14
O=C(O)c1ccccc1NS(=O)(=O)c1ccc(N/N=C/c2ccc(O)c(O)c2)c([N+](=O)[O-])c1	5.4	i	-25*	-1.1*	-8.5*
C[C@H](CO)N1C[C@H](C)[C@@H](CN(C)C(=O)Cc2ccccc2)OCCCC[C@H](C)Oc2ccc(NC(=O)Nc3ccccc3)cc2C1=O	0.4	i	0	-2	2.7
Cc1cc(C)cc(-n2c3ccc(NC(=O)Cc4cccc5ccccc45)cc3c(=O)n2C)c1	-0.2	i	12	12	-0.8
C[C@@H]1CN([C@H](C)CO)C(=O)Cc2cc(NC(=O)Nc3ccc(F)cc3)ccc2O[C@H]1CN(C)Cc1ccc(C(F)(F)F)cc1	0.5	i	4	13	-0.4
COc1ccc2c3c([nH]c2c1)[C@H](CO)N(C)CC31CCN(S(=O)(=O)c2cccc(F)c2)CC1	0.9	i	-10	-39	8.2
Clc1ccccc1C=NNc1ccccn1	-4.2	i	3	7	-5.7
O=C(C[C@H]1CC[C@H]2[C@@H](COC[C@H](O)CN2C(=O)Nc2ccc(F)cc2)O1)NCC1CC1	3.0	i	-2	4	-0.3
Nc1cccc(-c2cncc(N3CCN(Cc4ccccn4)CC3)n2)c1	2.1	i	20	17	1.4
Cc1nc2nc(C)n(CCN3CCOCC3)c(=O)c2c(-c2cccc([N+](=O)[O-])c2)c1C(=O)CCCCCCCCCCN1CCC(c2ccccc2)(c2ccccc2)CC1	15	i	-55	-71	-12
O=C(Nc1ccc(C(=O)N2CCCCC2)cc1)C1CCC1	-1.6	i	10	4	-0.8

Some of the entries so far, as a markdown table.
| SMILES | AF4-AF9 inh | FGF22 binding | rRNA inh HTS | rRNA inh HTS OD600 | rRNA inh HTS RFP |
| --- | --- | --- | --- | --- | --- |
| C[C@H](CO)N1C[C@H](C)[C@@H](CN(C)C(=O)Cc2ccccc2)OCCCC[C@H](C)Oc2ccc(NC(=O)Nc3ccccc3)cc2C1=O | 0.4 | i | 0 | -2 | 2.7 |
| C[C@@H]1CN([C@H](C)CO)C(=O)Cc2cc(NC(=O)Nc3ccc(F)cc3)ccc2O[C@H]1CN(C)Cc1ccc(C(F)(F)F)cc1 | 0.5 | i | 4 | 13 | -0.4 |

Next part.
SMILES	AF4-AF9 inh	FGF22 binding	rRNA inh HTS	rRNA inh HTS OD600	rRNA inh HTS RFP
Cc1cn([C@H]2C[C@H](O)[C@@H](CCC(=O)NCCc3cnc[nH]3)O2)c(=O)[nH]c1=O	-5.8	i	19	18	-0.8
COc1ccc(-c2ccc([C@H]3[C@H](C#N)N(C(=O)C4CC4)[C@H]3CO)cc2)cc1	-3.3	i	-3	-15	1.4
O=C(C[C@@H]1CC[C@@H](NS(=O)(=O)c2ccc(F)cc2)[C@@H](CO)O1)N1CCc2ccccc2C1	1.3	i	-3	-2	1.3
COc1ccc(Cl)cc1NC(=O)CSc1nc2[nH]ncc2c(=O)[nH]1	-2.3	i	-3	-18	13
C[C@@H]1CCCCO[C@H](CN(C)C(=O)Nc2ccc(F)cc2)[C@@H](C)CN([C@H](C)CO)C(=O)c2cc(NS(C)(=O)=O)ccc2O1	-0.8	i	2	10	-1.9
CCCS(=O)(=O)NC(=O)C1(C)CCCN(C(=O)c2ccc3snnc3c2)C1 (centres undefined)	1.0	i	11	14	2.7
CCc1nc2ccc(C(=O)Nc3cccc(OC)c3)cn2c1N(CC)CCOC	-4.5	i	-5	-8	-0.2
N#C[C@H]1[C@@H](c2ccc(C#Cc3ccccc3F)cc2)[C@@H](CO)N1C(=O)C1CCC1	2.9	i	1	0	-1.5
CN1C(=O)c2cc(NC(=O)c3ccc(F)cc3)ccc2OC[C@H]2O[C@H](CC(=O)N3CCOCC3)CC[C@@H]21	-1.2	i	4	8	-0.9
C[C@@H]1CN([C@@H](C)CO)C(=O)Cc2cc(NC(=O)c3ccncc3)ccc2O[C@@H]1CN(C)CC1CC1	-19	i	0	-2	-1.8
CCC(=O)N(C)C[C@@H]1Oc2cc(C#CCOC)ccc2S(=O)(=O)N([C@@H](C)CO)C[C@@H]1C	-1.7	i	3	6	-0.8
COc1ccc(CNC(=O)Nc2nc(C(N)Cc3ccc(Cl)cc3)cs2)cc1 (centres undefined)	14	i	-46	-56	-11
COCCCN(C(=O)C1=COCCO1)c1c(N)n(Cc2ccccc2)c(=O)[nH]c1=O	1.7	i	4	17	-0.9
C[C@@H]1CN([C@@H](C)CO)C(=O)c2cc(NS(=O)(=O)c3ccc(Cl)cc3)ccc2O[C@@H](C)CCCCO[C@@H]1CN(C)C(=O)Nc1ccccc1	2.5	i	-1	-6	-4.2
CNC[C@@H]1Oc2ncc(-c3ccccc3C)cc2C(=O)N([C@H](C)CO)C[C@H]1C	3.2	i	7	6	-1.6
C[C@H](CO)N1C[C@H](C)[C@@H](CN(C)S(=O)(=O)c2cn(C)cn2)Oc2c(NC(=O)NC3CCCCC3)cccc2C1=O	-2.7	i	-2	-3	-0.7
COCC(=O)Nc1ccc2c(c1)[C@H]1C[C@@H](CC(=O)NCc3ccccc3OC)O[C@@H](CO)[C@H]1O2	3.0	i	3	10	-0.1
COc1cccc(-c2oc3c(c2C(=O)OCCN(C)C)C(O)CCC3)c1 (centres undefined)	7.0	i	9	3	6.1
O=C(C[C@@H]1CC[C@H]2[C@@H](COC[C@@H](O)CN2S(=O)(=O)c2ccccc2)O1)NCc1ccc(-c2ccccc2)cc1	9.9	i	1	-20	14
C[C@H](O)C#Cc1cnc2c(c1)C(=O)N([C@@H](C)CO)C[C@@H](C)[C@@H](CN(C)CC1CCOCC1)O2	-5.1	i	0	2	-2.2
CO[C@H](CN(C)S(=O)(=O)c1ccc(C)cc1)[C@H](C)CN(Cc1ccccc1Cl)[C@H](C)CO	-1.5	i	-3	-19	2.6
CN(C)CCC(=O)N1C/C(=C/c2ccccc2)C(=O)/C(=C\c2ccccc2)C1	0.0	i	-60	-78	-18
CC(=O)NC(c1ccccc1)c1nc(/C=C/c2ccccc2)cs1 (centres undefined)	4.2	i	-2	-13	-2.7
C[C@H](CO)N1C[C@H](C)[C@H](CN(C)C(=O)Cc2ccccc2)Oc2ncc(C#CC3(O)CCCC3)cc2C1=O	-3.3	i	1	21	0.6
O=C(c1ccc(F)cc1)N1CCCCN2[C@H](CO)[C@H](c3ccc(-c4ccccc4)cc3)[C@@H]2C1	-2.5	i	-34	-67	-2.2
C[C@H](CO)N1C[C@H](C)[C@H](CN(C)C(=O)Nc2ccc3c(c2)OCO3)OCCCC[C@H](C)Oc2ccc(NC(=O)CCC(F)(F)F)cc2C1=O	3.8	i	-1	-5	-1.3
COc1ccc(CCNC(=O)c2ccc(Br)o2)cc1Br	1.0	i	-33	-54	12
C[C@@H]1CN([C@@H](C)CO)C(=O)c2cc(NC(=O)Nc3cccc4ccccc34)ccc2O[C@H]1CN(C)Cc1ccncc1	1.9	i	-5	-9	-0.1
C[C@H](CO)N1C[C@H](C)[C@@H](CN(C)C(=O)c2ccccc2)Oc2ncc(C3=CCCCC3)cc2C1=O	-0.9	i	-8	-12	2.5
O=C(C[C@H]1CC[C@@H](NC(=O)C2CCC2)[C@@H](CO)O1)NC1CCCCC1	-0.9	i	2	0	-1.2
CCOC(=O)C(=O)NC1CC=CCC1c1ccc2c(c1)OCO2 (centres undefined)	0.3	i	6	15	-1.2
O=C(/C=C/[C@H]1O[C@@H](n2ccc(=O)[nH]c2=O)[C@H](O)[C@@H]1O)NCCc1cccs1	-3.8	i	3	2	-1.8
O=C(O)c1cc2ccccc2c2c1C(=O)c1ccccc1-2	-1.9	i	6	-16	-0.9
CCC(=O)Nc1ccc2c(c1)C(=O)N(C)C[C@H](OC)[C@@H](C)CN(C(=O)c1ccncc1)[C@@H](C)CO2	0.6	i	4	7	-1.3
C[C@H]1CN([C@@H](C)CO)C(=O)CCCn2nncc2CO[C@@H]1CN(C)C(=O)Nc1ccc(N2CCCCC2)cc1	6.3&11&7.2	i	5&0	12&2	4.9&1.4
CCCN1[C@@H]2c3ccc(/C=C/c4ccccc4)c(=O)n3C[C@H]1[C@H](CO)[C@H]2C(=O)NCc1ccccn1	-3.2	i	-3	-8	-0.7

Pulled by compound from above:
SMILES	AF4-AF9 inh	FGF22 binding	rRNA inh HTS	rRNA inh HTS OD600	rRNA inh HTS RFP
CN1C(=O)c2cc(NC(=O)c3ccc(F)cc3)ccc2OC[C@H]2O[C@H](CC(=O)N3CCOCC3)CC[C@@H]21	-1.2	i	4	8	-0.9
C[C@H](CO)N1C[C@H](C)[C@H](CN(C)C(=O)Nc2ccc3c(c2)OCO3)OCCCC[C@H](C)Oc2ccc(NC(=O)CCC(F)(F)F)cc2C1=O	3.8	i	-1	-5	-1.3

Compound profiles, from the list above. Screens in order: AF4-AF9 inh	FGF22 binding	rRNA inh HTS	rRNA inh HTS OD600	rRNA inh HTS RFP
Results for O=C(C[C@H]1CC[C@@H](NC(=O)C2CCC2)[C@@H](CO)O1)NC1CCCCC1 → -0.9	i	2	0	-1.2
Results for C[C@H]1CN([C@@H](C)CO)S(=O)(=O)c2ccc(/C=C/c3ccccc3)cc2O[C@@H]1CN(C)C(=O)Nc1cccc(F)c1 → -0.2	i	-3	0	1.5

(cont.)
SMILES	AF4-AF9 inh	FGF22 binding	rRNA inh HTS	rRNA inh HTS OD600	rRNA inh HTS RFP
CS(=O)(=O)Nc1ccc2c(c1)[C@H]1C[C@@H](CC(=O)NCCN3CCCCC3)O[C@@H](CO)[C@H]1O2	1.7	i	1	2	-1.9
C[C@H]1CN([C@@H](C)CO)C(=O)c2cc(Br)cnc2O[C@H]1CN(C)Cc1ccc(Oc2ccccc2)cc1	9.3&8.1	i	-61&-3	-66&-28	-15&4.4
CN1C(=O)c2cc(NC(=O)Cc3cccs3)ccc2OC[C@H]2O[C@H](CC(=O)NCc3ccc(-c4ccccc4)cc3)CC[C@H]21	-11	i	0	3	0.7
COCC#Cc1ccc2c(c1)O[C@@H](CN(C)Cc1ccc(F)cc1)[C@H](C)CN([C@H](C)CO)S2(=O)=O	5.3	i	-20	-56	10
CNC[C@H]1Oc2ccc(N(C)C)cc2CC(=O)N([C@@H](C)CO)C[C@H]1C	-2.5	i	8	12	-0.6
C[C@@H]1CN([C@H](C)CO)C(=O)CCCn2nncc2CO[C@H]1CN(C)Cc1ccc(O)cc1	-5.2&-0.4	i	6&-3	4&-5	-4.9&-2.0
O=C(C1CCC1)N1C[C@@H]2[C@H](c3ccccc31)[C@@H](CO)N2C(=O)c1ccccc1F	1.0	i	2	14	-0.9
C[C@@H]1CN([C@H](C)CO)C(=O)c2cccc(NS(=O)(=O)c3cn(C)cn3)c2O[C@@H]1CN(C)Cc1ccc(-c2ccccc2)cc1	0.6	i	0	-2	-2.3
